TRPV1 PAM: potentiators of human vanilloid receptor 1 (TRPV1); TRPV1-expressing cells, Fluo-8 calcium influx, capsaicin EC20 potentiation; host cell line not named in the record; control for the full effect not named in the record; 0.02% of 320,000 active; potentiation, % at 8.33 µM; AID 540277; active means potentiation above 80%; inconclusive means 30% to 80%; inactive means below 30%; note: 0% is about no effect
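TRPV1-expressing cells were cultured overnight at 35.5C and loaded with Fluo-8 calcium dye for 40 to 90 min at room temperature. After a 10 s baseline, compound was added and calcium influx was read kinetically for 3 min (ex 480/em 520 nm).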
gsp ag: activates gsp, the McCune-Albright syndrome mutation; gsp mutant cells, cAMP HTRF, 30 min; control for the full effect not named in the record; Potency, µM (doses to about 76.9 µM), inactives show at the top dose activation (cAMP increase), usual class: activators; 0.13% of 340,000 active; AID 624287; active = well fitted activation curve with a large enough effect; inconclusive = small, poorly fitted or top-dose-only effect, or another doubt; inactive = no such curve, though single readings can be large or run the other way; cell line not stated here;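 note: phosphodiesterase inhibitor Ro 20-1724 added with compounds to block cAMP breakdown; potency is the fitted concentration of half-maximal effect; nearly all actives have a fitted effect of over 60% in size; about a fifth of the inactives were tested at one dose only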
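Cells in DMEM/10% FBS with G418 were pretreated with compounds in DMSO plus […] (300 uM stock) for 30 min at 37C. cAMP was measured by HTRF (cAMP-d2 plus anti-cAMP antibody-K) after 30 min at room temperature.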
ClpP mod: qHTS Assay for Activators of ClpP; 1.9% of 340,000 active; purified B. subtilis ClpP, FRET peptide cleavage, 20 min; Potency, µM (titrated, usually from 57.5 µM), for inactives: at the highest dose activity change, negative = active; AID 651965, 2013; active = well fitted falling curve with a large enough effect; inconclusive = small, poorly fitted or top-dose-only effect; inactive = no such curve, though single readings can be large or run the other way; note: potency is the fitted concentration of half-maximal effect; the source files actives as falling curves though it sought activators and does not explain the sign; nearly all actives have a fitted effect of over 65% in size; many hits overshoot -100%
Target sequence (P80244 whole entry, looked up): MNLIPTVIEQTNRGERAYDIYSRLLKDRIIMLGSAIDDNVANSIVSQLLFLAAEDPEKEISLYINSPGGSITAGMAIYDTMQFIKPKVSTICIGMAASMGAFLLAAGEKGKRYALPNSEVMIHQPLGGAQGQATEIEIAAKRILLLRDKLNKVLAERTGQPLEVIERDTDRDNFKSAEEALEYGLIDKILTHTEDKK
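Purified B. subtilis ClpP, 10 microg/mL final in Tris/HCl pH8 with KCl, BSA, glycerol and Tween-20, cleaved an Abz/nitrotyrosine-quenched decapeptide. Fluorescence (ex 320, em 430) was read at 0 and 20 min at room temperature. Delta was normalized to 5.8 microM ADEP and DMSO/no-enzyme controls.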
Menin MLL FP FL: menin-MLL binding inhibition, fluorescein peptide; Fluorescence polarization, fluorescein-MLL peptide displacement from menin; FP activity change, % at 61.4 µM; 290,000 tested, under 10 active; inconclusive = falling polarisation curve, or a change in total fluorescence; inactive = total fluorescence flat and polarisation flat or rising; no compound was filed as active; the % refers to the polarisation; negative = inhibition;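 note: % of control where 0% means no effect; inhibitors lower the polarisation; unlabelled MLL peptide was the positive control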
Sfp inh: Sfp phosphopantetheinyl transferase inhibition; Potency, µM, inactives show max response, negative = inhibition, hits mostly inhibitors; AID 1490; Q9F4F7; 3.5% of 310,000 active; Biochemical Sfp PPTase activity, qHTS; active = well fitted inhibition curve with a large enough effect; inconclusive = small, poorly fitted or top-dose-only effect, or another doubt; inactive = no such curve, though single readings can be large or run the other way;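 note: the enzyme is Sfp with the accession as filed and its product quenches rhodamine fluorescence; potency is the fitted concentration of half-maximal effect; 0% = enzyme reaction without inhibitor and -100% = no enzyme wells; top concentration of the series not given in the record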
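Reaction rates are the 30-min fluorescence difference (ex 525, em 598 nm) in wells containing 15 nM Sfp, 5 uM rhodamine-CoA and 12.5 uM BHQ-2-YbbR at pH 7.6 with 10 mM MgCl2.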
gsp antag: antagonists of gsp mutant (McCune-Albright syndrome). gsp-mutant cells, cAMP HTRF, 30 min; control for the full effect not named in the record. Potency, µM (doses to about 76.9 µM), without a hit: top-dose activity change, negative = inhibition, most hits filed as inhibitors. 0.4% of 340,000 active. AID 624288; active = falling curve of any shape with a large fitted effect; inconclusive = falling curve, mostly with a smaller effect; inactive = flat or rising curve; cell line not stated here;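 note: intracellular cAMP measured with PDE inhibitor Ro 20-1724 present during compound exposure; potency is the fitted concentration of half-maximal effect; % is set by controls: 0 for no effect and ±100 for the full control effect; nearly all actives have a fitted effect of over 65% in size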
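G418-selected cells were plated in DMEM/10% FBS for 16-24 h at 37C, then treated with compounds plus the PDE inhibitor […] (300 uM solution added) for 30 min at 37C. Intracellular cAMP was measured by HTRF after 30 min lysis at room temperature.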
D2 potentiator: positive allosteric modulators of human D2 dopamine receptor | DiscoveRx D2 beta-arrestin cells, luminescence, 90 min; 100% = 57 uM dopamine signal | AID 624464 | potentiation, % (no concentration beside the values) | 0.23% of 360,000 active; active = potentiation of 50% or more; inconclusive = 30% to 50%; inactive = 30% or less;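 note: compound concentration not given in the record; tested on top of an EC20 dose of dopamine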
Target sequence (P14416 whole entry, looked up): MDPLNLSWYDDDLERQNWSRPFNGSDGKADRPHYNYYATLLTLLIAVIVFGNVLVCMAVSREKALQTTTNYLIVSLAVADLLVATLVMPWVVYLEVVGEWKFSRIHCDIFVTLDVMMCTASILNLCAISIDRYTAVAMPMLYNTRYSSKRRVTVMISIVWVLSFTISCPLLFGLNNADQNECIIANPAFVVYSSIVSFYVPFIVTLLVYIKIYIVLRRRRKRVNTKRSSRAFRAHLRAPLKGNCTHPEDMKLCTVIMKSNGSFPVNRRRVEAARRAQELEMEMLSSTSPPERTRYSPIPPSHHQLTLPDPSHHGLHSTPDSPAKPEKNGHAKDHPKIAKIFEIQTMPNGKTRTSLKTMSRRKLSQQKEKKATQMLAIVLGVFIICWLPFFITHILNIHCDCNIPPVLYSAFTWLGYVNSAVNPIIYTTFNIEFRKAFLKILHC
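PathHunter D2 cells, attached overnight at 37 deg C, received compound in DMSO plus dopamine at EC20 (50 nM final) for 90 min at 37 deg C. Beta-arrestin recruitment was read as luminescence after 1 h with detection reagent at ambient temperature.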
An asterisk follows results filed as active; ? = inconclusive; . = no result given; [ ] = remark or other dose.

SMILES | TRPV1 PAM | gsp ag | ClpP mod | Menin MLL FP FL | Sfp inh | gsp antag | D2 potentiator
CC(=O)N/C(=C\c1ccccc1)C(=O)OCc1ccc(F)cc1 | -11 | -4% | -2.2% | . | 13% | -12% | -12
CCOC(=O)N1CCN(C(=O)c2ccc(Cl)c(NC(=O)c3cccs3)c2)CC1 | -1 | -15% | 0.4% | . | . | -7% | 4
CCn1c(SCC(=O)Nc2ccc(C(=O)OC)cc2)nc2cccnc21 | -1 | -17% | 5.0% | -3.1 | 1% | -14% | -11
CC(C)[C@H](NC(=O)c1ccccc1)C(=O)OCC(=O)c1ccccc1F | -21 | -23%[15.4 µM] | 0.2% | -0.6 | 20% | 1% | -8
COc1ccc2c(c1OC)C(=O)N(c1nc(SC)n[nH]1)C2=O | 21 | 5%[15.4 µM] | 0.2% | 1.3 | 5% | -10% | -5
Cc1ccc(N(CC(=O)NCC2CCCO2)C(=O)CCC(=O)Nc2nccs2)cc1C (stereo not given) | -10 | 3% | . | -7.1 | -5% | 6% | -12
Cc1nc2ccccc2c(=O)n1NC(=O)Cc1ccc(Br)cc1 | 4 | ? | 0.8% | 3.0 | 13% | 15% | -10
CCc1cc(SC#N)cc(C)c1NC(=O)CCl | -3 | 6% | -3.9% | 4.0 | 8% | 6% | -10
CCOC(=O)C1=C(C)N(C)C(=S)NC1c1ccc(Cl)cc1Cl (stereo not given) | -1 | 15% | -2.3% | -1.1 | -7% | -7% | -9
N#CCSc1nnc2c(Cl)cc(Cl)cn12 | 28 | 25% | -4.8% | -1.1 | 11% | 8% | -6
CCOC(=O)c1cnc2c(Cl)cc(Cl)cc2c1NCCOCCO | -8 | -34% | -2.9% | -2.6 | -12% | -14% | 5
O=S1(=O)CC(O)C(N(CCO)C(=S)Nc2ccccc2)C1 (stereo not given) | -6 | 8%[15.4 µM] | . | 7.5 | 8% | 14% | -7
O=C(COC(=O)c1ccc(OC(F)F)cc1)NCCNC(=O)COC(=O)c1ccc(OC(F)F)cc1 | 1 | 10% | 0.8% | . | 3% | 8% | -7
CC1CCCCC1NC(=O)COc1ccccc1C#N (stereo not given) | -4 | -30%[inhibitor] | 0.8% | . | . | 2% | -12
Clc1ccc(-c2noc(CSc3nnc(Cc4cccs4)n3-c3ccccc3)n2)cc1 | 16 | -29% | 0.2% | 4.1 | 1% | ? | -4
Fc1ccc(-n2nnnc2-c2ccccc2Cl)cc1 | -1 | 10% | . | -2.9 | 20% | -2% | 0
COc1ccc(-c2nc(C#N)c(N3CCC(C)CC3)o2)cc1 | -3 | 9% | . | -1.7 | -1% | -14% | 0
CCCCN(CC)CCNC(=O)c1cn(-c2ccc(Cl)cc2)c(=O)c2ccccc12 | -8 | 1%[15.4 µM] | . | -17 | 3% | 5% | -15
COc1ccc(-c2nc(C#N)c(NCCCn3ccnc3)o2)cc1OC | 12 | 18% | ? | 2.0 | 19% | 3% | -6
CCc1cccc(C)c1NC(=O)c1cccnc1 | 15 | 3%[15.4 µM] | 0.6% | 1.1 | 3% | 8% | -5
Cc1c(N=Cc2ccc(Cl)o2)c(=O)n(-c2ccccc2)n1C | 4 | -2% | -1.7% | ? | -24% | 3% | -7
CSc1nc(N)nc(SCC(=O)C23CC4CC(CC(C4)C2)C3)c1C#N | 5 | 30% | -3.9% | 5.7 | 6% | ? | -4
CCOc1ccccc1NC(=O)Cn1[nH]c(=O)c2ccccc2c1=O | 4 | . | . | -0.2 | 16% | . | .
CCCCn1c(N)c(N(CCOC)C(=O)c2oc3ccc(OCC)cc3c2C)c(=O)[nH]c1=O | 2 | ? | -13% | . | . | 8% | 1
O=C(Nc1cccc(S(=O)(=O)NC2=NCCC2)c1)C1CC(=O)N(c2ccc3c(c2)OCCO3)C1 (stereo not given) | 13 | -4%[15.4 µM] | . | 0.0 | 9% | -6% | -9

The results go on.
SMILES | TRPV1 PAM | gsp ag | ClpP mod | Menin MLL FP FL | Sfp inh | gsp antag | D2 potentiator
CN(C)S(=O)(=O)c1cccc(C(=O)OCC(=O)NCc2ccccc2)c1 | -4 | 0% | 0.8% | 5.4 | 12% | -4% | -8
CCCc1nc2ccc([N+](=O)[O-])cc2[nH]1 | 6 | -2%[15.4 µM] | . | 6.2 | 7% | 1% | -7
CCCCn1c(SCc2cccc([N+](=O)[O-])c2)nc2ccsc2c1=O | 1 | 1% | ? | 9.1 | -7% | ? | 7
CCC(OC(C)=O)c1cc2c(cc1[N+](=O)[O-])OCCO2 (stereo not given) | 3 | ? | -0.8% | 0.7 | -12% | 7% | -10
COc1ccc(NC(=O)C2C3C=CC4(CN(Cc5cccnc5)C(=O)C24)O3)c(OC)c1 (stereo not given) | -4 | ? | 0.9% | 1.1 | -8% | 0% | -16
O=C(CN1C(=O)COc2ccc(S(=O)(=O)N3CCCC3)cc21)NCc1ccccn1 | -11 | -8%[15.4 µM] | . | 2.4 | -3% | 2% | -5
CC1=C(C(=O)OCc2ccccc2)C(c2ccc([N+](=O)[O-])cc2)NC(=O)N1 (stereo not given) | -2 | 8% | -0.2% | 5.8 | 2% | -3% | 7
COc1cccc(NC(=O)c2ccc(-n3cccn3)nc2)c1 | . | -39% | -20% | 0.7 | 4% | -9% | -12
Cc1nc(SCC(=O)NCc2ccco2)c2oc3ccccc3c2n1 | 1 | 0% | -2.5% | 1.4 | -21% | 1% | -2
COc1ccccc1-n1nnnc1SCC(=O)NCC1(N2CCOCC2)CCCCC1 | 1 | -20% | 0.1% | . | . | 4% | -2
COC(=O)c1ccc(Cn2cnc3c(N)ncnc32)cc1 | . | 4% | -3.1% | . | . | -10% | 3
COc1cc(-c2csc(CCn3nc(C)cc3C)n2)cc(OC)c1OC | -1 | -8%[15.4 µM] | . | -2.0 | -3% | . | -8
O=C(CN1C(=O)c2cccc3cccc1c23)NCc1ccccn1 | 23 | 21% | -2.2% | -0.3 | 20% | 10% | -5
Cc1ccc(C2C3=C(CC(C)(C)CC3=O)NC3=C2C(=O)CC(C)(C)C3)o1 | 25 | 0% | -2.0% | 0.2 | ? | -6% | -9
Cc1ccc(C)c(N2CCN(C(=O)c3cc4c(C)nc5ccccc5c4o3)CC2)c1 | 6 | 23% | 2.4% | -0.8 | ? | ? | -14
OC(COCc1ccc2c(c1)OCO2)CN1CCC(Cc2ccccc2)CC1 (stereo not given) | 7 | -2%[15.4 µM] | -0.1% | -0.2 | 10% | 0% | -14
Cc1nn(Cc2ccccc2)c(Cl)c1C(=O)OCc1nnc(-c2ccccc2)o1 | 0 | -33%[inhibitor] | -0.3% | 0.8 | -3% | -19% | 8
O=S(=O)(c1ccc(Br)c2nsnc12)N1CCOCC1 | 1 | 0% | -9.7% | 0.3 | 2% | -16% | -7
O=c1[nH]n(-c2ncnc3c2cnn3-c2ccccc2)c(=O)c2ccccc12 | -1 | ? | 9.1% | 1.8 | -2% | 6% | -14
COc1cc(C(=O)N2CCN(c3cccc(C)c3C)CC2)ccc1OCC(=O)N1CCOCC1 | 1 | 4% | -1.4% | . | . | -1% | -3
O=C1OCC(O)=C1Cc1ccccc1 | . | -23% | -2.6% | . | . | 4% | -10
Cc1ccc(-c2nc(N)sc2-c2ccccc2)cc1C | -8 | 2% | -9.9% | 3.0 | -24% | -8% | -4
COC(=O)C1=Cc2cc(OC)cc([N+](=O)[O-])c2OC1N1CCOCC1 (stereo not given) | -11 | -8% | -0.5% | 11 | 3% | 4% | 28
COc1ccc(CC(=O)OCC(=O)NCc2ccco2)cc1OC | -31 | -28% | 2.2% | . | . | 4% | 22
CC(C)(C)OC(=O)N1CCC[C@H]1c1nnc(SCc2ccccc2Cl)o1 | -10 | -24% | -1.5% | 4.1 | -2% | 8%[15.4 µM] | -24

An excerpt from above in order of the gsp antag value, smallest number first:
molecule | gsp ag | Menin MLL FP FL | Sfp inh | gsp antag | D2 potentiator
COC(=O)c1ccc(Cn2cnc3c(N)ncnc32)cc1 | 4% | . | . | -10% | 3
Cc1ccc(-c2nc(N)sc2-c2ccccc2)cc1C | 2% | 3.0 | -24% | -8% | -4
O=C(CN1C(=O)c2cccc3cccc1c23)NCc1ccccn1 | 21% | -0.3 | 20% | 10% | -5

Quoted from above, three compounds:
SMILES | TRPV1 PAM | gsp ag | ClpP mod | Menin MLL FP FL | Sfp inh | gsp antag | D2 potentiator
COC(=O)C1=Cc2cc(OC)cc([N+](=O)[O-])c2OC1N1CCOCC1 (stereo not given) | -11 | -8% | -0.5% | 11 | 3% | 4% | 28
COc1ccc(CC(=O)OCC(=O)NCc2ccco2)cc1OC | -31 | -28% | 2.2% | . | . | 4% | 22
CC(C)(C)OC(=O)N1CCC[C@H]1c1nnc(SCc2ccccc2Cl)o1 | -10 | -24% | -1.5% | 4.1 | -2% | 8%[15.4 µM] | -24

Further structures:
SMILES | TRPV1 PAM | gsp ag | ClpP mod | Menin MLL FP FL | Sfp inh | gsp antag | D2 potentiator
Cc1ccc(S(=O)(=O)N2CCN(C(=O)COC(=O)/C=C/c3ccc(C(F)(F)F)cc3)CC2)c(C)c1 | . | -37%[inhibitor] | 0.9% | . | . | 15% | 4
O=C1OC(Nc2ncccn2)c2ccccc21 (stereo not given) | 8 | 10% | -5.1% | -1.0 | 15% | 10% | -8
Cc1ccccc1C(=O)NC(CC(C)C)C(=O)Nc1cccc(S(=O)(=O)N(C)C)c1 (stereo not given) | -10 | 16% | -2.5% | -0.6 | 13% | 1% | -33
Cc1ccc(NC(=O)Nc2cccnc2)cc1 | -14 | 1%[15.4 µM] | -1.1% | -1.8 | 2% | 6% | 3
O=C(NCCCN1CCN(c2ccccc2F)CC1)Nc1ccc(F)cc1 | -5 | 12% | -1.8% | 0.9 | -4% | 12% | -4
COc1ccc(-c2csc(Cc3nnc4n3CCCCC4)n2)cc1OC | -10 | 20% | -0.8% | 2.3 | ? | 3% | 11
CCOC(=O)CC(=O)CSc1ccc2nnc(-c3ccccc3)n2n1 | 8 | ? | ? | 2.9 | -1% | 7% | 3
CCCN1CCN(CCCNC(=O)c2ccc(CS(=O)c3ccc(OC)cc3)o2)CC1 (stereo not given) | 3 | -12% | -0.4% | . | 16% | 9% | -9

Screening data as filed in PubChem.
